High-throughput results as filed in PubChem.
AmpC nodet inh – Promiscuous and Specific Inhibitors of AmpC Beta-Lactamase (assay without detergent) | AmpC nitrocefin hydrolysis, absorbance 480 nm, no detergent; potencies from a single point are estimates | actives 1.8% (n = 71,000) | Potency, µM (series often up to 28.7 µM), for inactives: top-dose activity change, negative = inhibition; active = falling curve, for most hits resting on a single point; inconclusive = weak or doubtful change; inactive = flat or rising curve; further: % of control where 0% means no effect; about half of the hits show no inhibition at the top dose; a quarter of the inactives give rising signals
Target sequence (P00811 whole entry, looked up): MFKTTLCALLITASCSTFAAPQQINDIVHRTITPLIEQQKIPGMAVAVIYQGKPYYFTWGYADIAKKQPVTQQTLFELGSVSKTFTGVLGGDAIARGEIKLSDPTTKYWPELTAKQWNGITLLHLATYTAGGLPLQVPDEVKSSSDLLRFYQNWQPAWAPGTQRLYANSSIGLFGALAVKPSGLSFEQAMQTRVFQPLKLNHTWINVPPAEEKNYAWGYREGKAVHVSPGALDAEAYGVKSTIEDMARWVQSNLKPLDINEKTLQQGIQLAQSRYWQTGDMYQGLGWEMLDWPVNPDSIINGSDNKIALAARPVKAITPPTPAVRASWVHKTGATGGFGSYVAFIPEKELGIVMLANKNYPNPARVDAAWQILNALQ
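AmpC in 20 mM phosphate buffer pH 7.0 was preincubated 15 min at room temperature with compounds. Nitrocefin (800 uM stock) was then added and hydrolysis followed at 480 nm every 20 s for 4 min.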
* marks the source's active call; other numbers are inactive results; ? = inconclusive; [ ] = dose if it differs, or a comment. Potency means the concentration at half of the fitted maximal effect.

SMILES	AmpC nodet inh
CC1=C(C#N)C2C(/C1=N/O)C2(C)C (stereo unspecified)	10%
CCCCn1nnnc1SCC(=O)N1CCN(C(=O)c2ccco2)CC1	16%
C=CC(C)(O)CCC=C(C)C (stereo unspecified)	-13%
CC(C)c1nnc(NC(=O)c2ccc(S(=O)(=O)N3CCOCC3)cc2)s1	3%
CCCOC(=O)NC(CC)COC(=O)Nc1cccc(C)c1C (stereo unspecified)	20%
CCc1cc(=O)n2[nH]c(C)c(-c3ccccc3OC)c2n1	-5%
Cc1ccc(N2C(=O)c3cccc4c(N5CCN(C)CC5)ccc(c34)C2=O)c2cccnc12	63%
CCC(=NCC1CCCO1)c1c(O)[nH]c(=O)[nH]c1=O (stereo unspecified)	-14%
Cn1nc(C(=O)Nc2cccc(C(F)(F)F)c2)ccc1=O	12%
O=C(O)C[C@H]1OCC=C2C[N@@+]3([O-])CC[C@]45c6ccccc6N[C@@H]4[C@@H]1[C@H]2C[C@H]53	6%[5.75 µM]
Nc1c(S(=O)(=O)O)cc(Nc2ccc(Nc3nc(Cl)nc(Nc4ccc(S(=O)(=O)O)cc4)n3)c(S(=O)(=O)O)c2)c2c1C(=O)c1ccccc1C2=O	-35%
COc1ncc2nc(-c3cccs3)c(=O)n(CCC#N)c2n1	6%
COc1cc(NC(=O)c2noc3c2CCCC3)c(OC)cc1Cl	5%
CC(=O)c1cccc(NC(=O)C=C(C)C)c1	14%
Cn1c(=O)c2c(nc(CN3CCC(C(N)=O)CC3)n2CCCc2ccccc2)n(C)c1=O	62%

The closing 4 records of the section before lead into the next:
SMILES	AmpC nodet inh
COc1ncc2nc(-c3cccs3)c(=O)n(CCC#N)c2n1	6%
COc1cc(NC(=O)c2noc3c2CCCC3)c(OC)cc1Cl	5%
CC(=O)c1cccc(NC(=O)C=C(C)C)c1	14%
Cn1c(=O)c2c(nc(CN3CCC(C(N)=O)CC3)n2CCCc2ccccc2)n(C)c1=O	62%
Brc1ccc(NCc2nnc3n2CCCCC3)cc1	17%
Cc1cc(N2CCN(c3ccccc3)CC2)nc(-c2ccccc2)n1	48%
CC(C)CCNC(=O)C(c1ccco1)N(CC1CCCO1)C(=O)Cn1nnc2ccccc21 (stereo unspecified)	36%
COc1cccc(NC(=O)N2CCCC2C(=O)NCC(C)C)c1 (stereo unspecified)	-20%
CC1CCCCN1C(=O)c1cnn2c(C(F)(F)F)cc(-c3ccco3)nc12 (stereo unspecified)	9%
COC(=O)[C@@]1(Cc2ccccc2)[C@H]2c3cc(C(=O)N4CCCC4)n(Cc4ccsc4Br)c3C[C@H]2CN1C(=O)c1ccccc1	101%
CN1C(=O)c2ccc(NC(=O)c3c(F)c(F)c(F)c(F)c3F)cc2C1=O	-5%
CCOCCn1c(SCCCc2ccccc2)nc2c1c(=O)[nH]c(=O)n2C	50%
CC1(C)CC(C2N3CC4(C)CN2CC(C)(C3)C4=O)CCO1 (stereo unspecified)	5%
COc1ccccc1CN1CCCC(C(=O)N(C)Cc2ccccc2)C1 (stereo unspecified)	-8%
CCCCC[C@@H](O)[C@@H]1C(=O)O[C@@H](C)[C@@H](O)\C=C/C=C\C=C/C=C\C=C(\C)[C@H](O)C[C@H](O)C[C@H](O)C[C@H](O)C[C@H](O)C[C@H](O)C[C@@H]1O	31%[5.75 µM]
COC(=O)C1=C(C)Nc2nnnn2C1c1ccc(Cl)cc1Cl (stereo unspecified)	8%
COc1cccc(CNC(=O)C2CCN(S(=O)(=O)c3ccc(F)cc3)CC2)c1	22%
Cn1c(=O)c2c(ncn2CC(=O)N2CCN(c3ccc(F)cc3)CC2)n(C)c1=O	12%
Cc1ccc2cc(CN(CC3CCCO3)C(=O)C(C)C)c(=O)[nH]c2c1 (stereo unspecified)	2%
CCOC(=O)/C=C1\SCC(=O)N1Cc1nnc(-c2ccccc2Br)o1	4%
NS(=O)(=O)Cc1noc2ccccc12	6%
CC(C)(C)SCCNC(=O)CSc1ccccc1	10%
COc1ccc(S(=O)(=O)Cc2ccc(C(=O)N3CCN(c4ccccc4)CC3)o2)cc1	116%
CCOC(=O)c1cccc(NC(=O)C2CCCN(S(=O)(=O)c3c(C)nn(C)c3C)C2)c1 (stereo unspecified)	?
CCOC(=O)C1=CN(C)C=C(C(=O)OCC)C1c1ccsc1	19%
CCOc1ccc(NC(=O)c2ccco2)cc1	-6%
CN1CCN(c2nc(-c3cccs3)cc(C(F)(F)F)n2)CC1	50%
COC(=O)c1ccccc1NC(=O)CSc1nc(-c2ccco2)cc(C(F)(F)F)n1	13%
CCOC(=O)Cn1c(=O)c2c(nc(N3CCCCC3)n2C)n(C)c1=O	31%
CNC(=O)C(Sc1ccccc1)c1ccccc1 (stereo unspecified)	-1%
COc1ccc(N2C(=O)C3CCCN3C2c2cccc(F)c2)cc1Cl (stereo unspecified)	42%
CCc1nnc(NC(=O)C2CCN(c3cnccn3)CC2)s1	11%
Nc1nonc1-c1nc2ccccc2n1CC(=O)N1CCN(c2ccc(F)cc2)CC1	4%
CC(c1ccco1)N(C(=O)c1ccc(S(=O)(=O)N2CCCCC2)cc1)c1ccccn1 (stereo unspecified)	109%
OCCN1CCN(c2nc(-c3ccccc3)nc3c2oc2ccccc23)CC1	86%
Cc1ccc(C2(C(F)(F)F)NC(=O)N3CCCN=C3S2)cc1 (stereo unspecified)	-1%
CCC1CCCN1Cn1cnc2c([nH]c3ccccc32)c1=O (stereo unspecified)	-7%
Cc1ccc(C)c(NC2=NS(=O)(=O)c3ccccc32)c1	-5%
CCCCOCCCNC(=O)COc1ccccc1	22%
CCOc1ccc2c(c1)N(C(=O)CN1C(=O)CCC1=O)C(C)(C)C=C2C	83%
CCCCCNC(=O)c1cc(S(=O)(=O)N2CCCCC2)ccc1F	-4%
CC(=O)Nc1ccc(C(=O)Cn2nnc3ccccc3c2=O)cc1	-8%
Cc1ccccc1OCC(=O)NCC1CCCO1 (stereo unspecified)	12%
CCOc1ccccc1NC(=O)CSc1nnc(-c2cnccn2)n1C	18%
COc1ccc(-c2cc(C(=O)N3CCN(C(c4ccccc4)c4ccccc4)CC3)no2)cc1	0%
CCOC(=O)CN1CC23C=CC(O2)C(C(=O)O)C3C1=O (stereo unspecified)	0%
Cc1c(O)nc(SC2CC(=O)N(c3ccccc3)C2=O)[nH]c1=O (stereo unspecified)	-6%
COc1ccc(-n2c(=O)c(-c3cccs3)nc3cnc(N(C)C)nc32)cc1	0%
Cc1ccc(CNC(=O)CCCn2c(=O)[nH]c3ccccc3c2=O)cc1	-5%
Cc1cc(C(=O)Nc2ccon2)cs1	4%
N[C@@H](Cc1c[nH]c2ccccc12)c1nnc(SCc2ccc(Cl)cc2)o1	123%
CCOc1cc(OCC)cc(C(=O)Nc2cccnc2)c1	8%
CCC1(CC)C(=O)N(C)C(=O)NC1=Nc1ccccc1	1%
Cn1c(=O)[nH]c(=O)c2c1nc(N1CCCCCC1)n2CCCSc1nc2ccccc2o1	73%
COCCCN=C(c1ccco1)n1c(=S)nc(-c2ccco2)n(CCCOC)c1=S	72%
COc1ccc(N2CCN(C(c3cc(OC)ccc3OC)c3nnnn3Cc3ccco3)CC2)cc1 (stereo unspecified)	90%
CCCCn1c(O)c(C(C)=Nc2ccc(OCC)cc2)c(=O)[nH]c1=O	20%
CCOC(=O)c1c(NC(=O)CSc2nnc(CNc3ccc(F)cc3)o2)sc(C)c1C	50%
CCOC(=O)Cn1c(=O)oc2cc(S(=O)(=O)N3CCCC(C(=O)OCC)C3)ccc21 (stereo unspecified)	78%
Cc1nc2ccc(S(=O)(=O)NCC(=O)N3CCC(N4CCCCC4)CC3)cc2s1	-8%
C(=N\n1cnnc1)/C1CCCCC1	-3%
CCNc1ncc2nc(-c3cn(C)c4ccccc34)c(=O)n(CCC#N)c2n1	21%
Cc1onc(-c2ccccc2)c1C(=O)N1CCOCC1	-13%
COc1cc(N)c(Cl)cc1C(=O)CCC1CCN(CCNS(C)(=O)=O)CC1	17%

More results:
SMILES	AmpC nodet inh
COc1ccc(N(C(=O)c2cccc(OC)c2OC)C2C=CS(=O)(=O)C2)c(OC)c1 (stereo unspecified)	31%
CCNC(=O)c1c(C)[nH]c(C(=O)OCC)c1C	7%
O=c1cnnc(NCc2ccccc2)[nH]1	-8%
O/N=C1/CCCSc2ccccc21	2%
O=C(NCc1ccccc1)C1CCN(S(=O)(=O)N2CCCCCC2)CC1	39%
COc1ccc(OC)c(N(CC(=O)Nc2ccc(NC(C)=O)cc2)S(C)(=O)=O)c1	7%
O=c1[nH]c(CN2CCN(C/C=C/c3ccccc3)CC2)nc2ccccc12	37%
Cc1ccc2nc(Nc3ccc4[nH]c(=O)[nH]c4c3)c(-n3nc(C)cc3C)nc2c1	42%
Cc1cc(SCC(=O)c2ccccc2)nc(C)n1	6%
N#CCCCCC#N	-10%
N#Cc1ccccc1-c1nc(NCCN2CCOCC2)c2ccccc2n1	18%
C[C@H]1CN(C2CCC(C#N)(c3ccc(F)cc3)CC2)CC[C@@]1(C(=O)O)c1ccccc1 (stereo partly specified)	-4%[12.8 µM]
COCCN(C(=O)CCCC(=O)Nc1ccccn1)C(C(=O)NC1CCCC1)c1ccc(C)cc1 (stereo unspecified)	102%
CS(=O)(=O)N(CC(=O)Nc1ccc2c(c1)OCO2)Cc1ccc(Cl)cc1	-2%
COCCNC(=O)c1cc(-c2ccc(OC)c(OC)c2)on1	5%

2 of these compounds in a different format.
| molecule | AmpC nodet inh |
| --- | --- |
| N#Cc1ccccc1-c1nc(NCCN2CCOCC2)c2ccccc2n1 | 18% |
| C[C@H]1CN(C2CCC(C#N)(c3ccc(F)cc3)CC2)CC[C@@]1(C(=O)O)c1ccccc1 (stereo partly specified) | -4%[12.8 µM] |

Copied from the results shown for reference:
SMILES	AmpC nodet inh
Cc1cc(SCC(=O)c2ccccc2)nc(C)n1	6%
N#CCCCCC#N	-10%
N#Cc1ccccc1-c1nc(NCCN2CCOCC2)c2ccccc2n1	18%
C[C@H]1CN(C2CCC(C#N)(c3ccc(F)cc3)CC2)CC[C@@]1(C(=O)O)c1ccccc1 (stereo partly specified)	-4%[12.8 µM]
COCCN(C(=O)CCCC(=O)Nc1ccccn1)C(C(=O)NC1CCCC1)c1ccc(C)cc1 (stereo unspecified)	102%
CS(=O)(=O)N(CC(=O)Nc1ccc2c(c1)OCO2)Cc1ccc(Cl)cc1	-2%
COCCNC(=O)c1cc(-c2ccc(OC)c(OC)c2)on1	5%

(next part)
SMILES	AmpC nodet inh
N#C/C=C1/NC(=O)c2ccccc2S1	-16%
COc1ccc2c(c1OC)C(=O)O[C@H]2[C@H]1c2cc3c(cc2CCN1C)OCO3	30%
O=C(O)CCl	0%
FC(F)(F)c1nc2nc(Cl)c(Cl)nc2n1CCCN1CCOCC1	11%[5.75 µM]
Cc1cc(Cl)ccc1OCC(=O)Nc1ccccc1CO	-9%
CCOC(=O)CNC(=O)CSc1ncnc2c1cnn2-c1ccc(C)cc1	22%
O=C(NCCc1c[nH]c2ccccc12)[C@@H]1C[C@H]1[C@@H](NP(=O)(c1ccccc1)c1ccccc1)c1ccccc1	43%
CCOC(=O)N1CCN(C(=O)CSc2nc3ccccc3c(=O)n2-c2ccccc2)CC1	70%
COc1cc(C2NC(=O)NC(C)=C2C(=O)OC2CCCCC2)cc(Br)c1O (stereo unspecified)	49%
COc1cc(-c2ccc(N=Nc3ccc4c(S(=O)(=O)O)cc(S(=O)(=O)O)c(N)c4c3O)c(OC)c2)ccc1N=Nc1ccc2c(S(=O)(=O)O)cc(S(=O)(=O)O)c(N)c2c1O	-41%[single pt active]
Cc1cccc(OCC(=O)Nc2cc(C)c(C)cc2O)c1	?
CC(C)(C)n1nc2c(c1NC(=O)COc1ccc(Cl)cc1)CSC2	13µM*
Cn1c(CCCCCN)nc2ccccc21	55%
CCOC(=O)c1ccc(S(=O)(=O)N2CCN(CC3CC=CCC3)CC2)cc1 (stereo unspecified)	37%
CC(C)(C)n1ncc2c(=O)n(CC(=O)c3ccc(Cl)cc3)cnc21	0%
CCOC(=O)c1cc(NC(=O)Nc2ccc(OC)c(OC)c2)c(C)nc1C	41%
O=c1c(-c2cccc(Cl)c2)nc2cncnc2n1C1CC1	12%
Cn1c2ccccc2c2c(C(=O)NCCCN3CCCC3=O)cn(C3CCCCC3)c(=O)c21	107%
C=C1C(=O)O[C@H]2C[C@@]3(C)CCCC(=C)[C@@H]3C[C@H]12	35%
O=C(CCn1nc(-c2ccc(Cl)cc2)ccc1=O)N1CCOCC1	21%
O=C1C[C@@H]2OCC=C3CN4CC[C@]56c7ccccc7N1[C@@H]5[C@@H]2[C@H]3C[C@H]46 (tested in a mixture with another compound)	0%[5.75 µM]
Cc1cc(NS(=O)(=O)c2ccc(Br)s2)no1	-13%
CCNc1ncc2nc(-c3cc(F)cc(F)c3)c(=O)n(C3CC3)c2n1	7%
Cn1c(=O)c2c(nc(CN3CCN(c4ccccc4)CC3)n2Cc2c(F)cccc2Cl)n(C)c1=O	134%
O=C(OCCN1CCCCC1)c1cc2ccccc2o1	-5%
COc1cccc(C(=O)N2CCN(C3CCC(c4ccccc4)CC3)CC2)c1OC (stereo unspecified)	147%
CCOCCCN(Cc1cc2cc(C)cc(C)c2[nH]c1=O)C(=O)N(CC)CC	74%
Cc1cc(N2CCC(C)CC2)nc2ccc(N3C(=O)CCC3=O)cc12	53%
COc1ccccc1CNC(=O)C1CCN(Cc2nc(-c3ccc(Cl)cc3)oc2C)CC1	110%
CN(C=O)CP(=O)(O)CN(C)C=O	123%
CCOC(=O)N1CCN(c2c(NCCN(C)Cc3ccccc3)c(=O)c2=O)CC1	4µM*[single pt active]
Cc1cc(NC(=O)CN2CC3CC(C2)c2cccc(=O)n2C3)nc2c1c(=O)oc1ccccc12 (stereo unspecified)	6%

Not all compounds are listed; rates above refer to the full screens.
